Compound activity deposited in PubChem BioAssay by Broad Institute.
NOMO-1 viab: NOMO-1 AML cell viability reduction, primary screen, STK33 inhibitor project, CellTiter-Glo luminescence; NOMO-1 AML viability, 72 h; inhibition, % (no concentration beside the values); 37,000 compounds, 7.5% hits;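 active means most replicates above 80%; inconclusive means exactly half above 80%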;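 further: wells of about 30 µL received 25 nL stock; 0% = median of vehicle wells and 100% = reference inhibitor level; the first replicate is given; inactives centre near 10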
* hit, by the source's call; ? = inconclusive. Some of the compounds tested; the hit share may differ from the screen's.

SMILES	NOMO-1 viab
Cc1ccc(S(=O)(=O)Nc2cccc3c2O[C@@H](CN(C)Cc2ccc4c(c2)OCO4)[C@H](C)CN([C@@H](C)CO)C3=O)cc1	2
COc1ccc(CCC(=O)c2ccc(OC)cc2O)cc1	-3
Cc1noc(C)c1NC(=O)N(C)C[C@H]1Oc2ccc(NC(=O)NC3CCCCC3)cc2CC(=O)N([C@@H](C)CO)C[C@H]1C	-3
COc1ccc(S(=O)(=O)N(C)C[C@@H]2Oc3ccc(NC(=O)Nc4cccc5ccccc45)cc3C(=O)N([C@@H](C)CO)C[C@H]2C)cc1	2
COc1ccccc1NC(=O)CSc1nc(C)cc(C(F)(F)F)n1	-12
CCc1cc(OCCSc2nc(C)cc(=O)[nH]2)ccc1Cl	23
C[C@@H]1CN([C@@H](C)CO)C(=O)Cc2cc(NS(=O)(=O)c3cccs3)ccc2O[C@@H]1CN(C)CC1CCCCC1	12
C[C@@H]1CN([C@@H](C)CO)C(=O)c2cccc(NC(=O)Nc3ccc(F)cc3)c2O[C@H]1CN(C)C(=O)Nc1ccccc1	24
COC(=O)c1ccccc1NC(=O)c1ccccc1NS(=O)(=O)c1cccc2cccnc12	-5
O=C1c2cccc3cccc(c23)C(=O)N1CCN1CCN(C(=S)Nc2cccc(S(=O)(=O)C(F)F)c2)CC1	-11

4 compounds from above, arranged by molar mass, largest number first.
SMILES	NOMO-1 viab
Cc1noc(C)c1NC(=O)N(C)C[C@H]1Oc2ccc(NC(=O)NC3CCCCC3)cc2CC(=O)N([C@@H](C)CO)C[C@H]1C	-3
C[C@@H]1CN([C@@H](C)CO)C(=O)c2cccc(NC(=O)Nc3ccc(F)cc3)c2O[C@H]1CN(C)C(=O)Nc1ccccc1	24
COc1ccccc1NC(=O)CSc1nc(C)cc(C(F)(F)F)n1	-12
COc1ccc(CCC(=O)c2ccc(OC)cc2O)cc1	-3

The results go on:
SMILES	NOMO-1 viab
CCOc1ccc(Oc2nc(Nc3ccc(C)cc3)nc(N(C)C)n2)nn1	21
Cc1cc(=O)oc2cc(OC3OC(CO)C(O)C(O)C3O)ccc12 (configuration not stated)	-13
CC1CCc2nc(NC(=O)c3ccc(Cc4ccccc4)cc3)sc2C1 (configuration not stated)	?
C[C@@H]1CN([C@H](C)CO)C(=O)c2cc(NC(=O)Nc3ccc(F)cc3)ccc2O[C@@H]1CN(C)Cc1ccc2c(c1)OCO2	2
COc1ccc([C@@H]2CC(=O)c3c(O)cc(O[C@@H]4O[C@H](CO[C@H]5O[C@@H](C)[C@H](O)[C@@H](O)[C@H]5O)[C@@H](O)[C@H](O)[C@H]4O)cc3O2)cc1O	-14
COc1ccc(/C=C2\SC(=S)N(CCCC(=O)O)C2=O)cc1OC	17
C[C@H](CO)N1C[C@H](C)[C@@H](CN(C)Cc2ccc3c(c2)OCO3)Oc2c(NS(=O)(=O)c3ccccc3)cccc2C1=O	21
CC(=O)c1cccc(NC(=S)NCCn2cc(Cl)cn2)c1	15
C[C@H](CO)N1C[C@H](C)[C@@H](CN(C)Cc2ccc3c(c2)OCO3)Oc2c(NC(=O)Nc3ccc(F)cc3)cccc2C1=O	72
C[C@@H]1CCCCO[C@@H](CN(C)S(=O)(=O)c2cn(C)cn2)[C@@H](C)CN([C@H](C)CO)C(=O)c2cc(NC(=O)Nc3ccc(C(F)(F)F)cc3)ccc2O1	14
Cc1noc(C)c1S(=O)(=O)N(C)C[C@H]1OCCCC[C@@H](C)Oc2ccc(NS(=O)(=O)c3ccc(Cl)cc3)cc2C(=O)N([C@H](C)CO)C[C@@H]1C	32
C[C@@H]1CN([C@@H](C)CO)C(=O)c2cc(NC(=O)Nc3ccccc3)ccc2O[C@H]1CN(C)S(=O)(=O)c1ccc(F)cc1	-9
COc1cc(O)c2c(c1)C1=C[C@H](O)[C@@H](O)C[C@]1(C)OC2=O	19
CCCOc1ccc(-c2nc(SCC(N)=O)n[nH]2)cc1	14
C[C@@H]1CCCCO[C@H](CN(C)C(=O)c2ccncc2)[C@@H](C)CN([C@H](C)CO)C(=O)c2cc(NS(=O)(=O)c3ccccc3)ccc2O1	5
Cn1c(NC(=O)c2cccc(Cn3cc(Cl)cn3)c2)nc2ccccc21	51
CNC[C@H]1Oc2ccc(NC(=O)CCC(F)(F)F)cc2CC(=O)N([C@H](C)CO)C[C@H]1C	4
CC(C)NC(=O)N(C)C[C@@H]1Oc2ccc(NC(=O)Nc3ccc4c(c3)OCO4)cc2C(=O)N([C@@H](C)CO)C[C@@H]1C	6
O=C(NCCc1c[nH]c2ccccc12)Nc1ccc(Cl)c(Cl)c1	27
C[C@@H]1CN([C@H](C)CO)C(=O)Cc2cc(NC(=O)Cc3cn(C)c4ccccc34)ccc2O[C@H]1CN(C)C(=O)NC1CCCCC1	12
C[C@H](CO)N1C[C@H](C)[C@@H](CN(C)S(=O)(=O)c2ccccc2)Oc2ccc(NC(=O)c3ccncc3)cc2C1=O	-12
C[C@H](CO)N1C[C@H](C)[C@H](CN(C)Cc2ccc(Oc3ccccc3)cc2)Oc2ccc(NC(=O)Nc3cccc4ccccc34)cc2C1=O	113*
Nc1ccc(C(=O)NCC2CCCN3CCCCC23)cc1 (configuration not stated)	15
C[C@@H]1CN([C@@H](C)CO)C(=O)c2cccc(NC(=O)Nc3ccccc3)c2O[C@@H]1CN(C)S(=O)(=O)c1cn(C)cn1	25
COc1ccc(S(=O)(=O)N(C)C[C@H]2Oc3c(NC(=O)C4CCOCC4)cccc3C(=O)N([C@H](C)CO)C[C@H]2C)cc1	23
Cc1cc(Oc2ccccc2)nc(SCCOc2ccccc2)n1	12
C[C@@H]1CN([C@@H](C)CO)C(=O)c2cc(NS(=O)(=O)c3ccc(Cl)cc3)ccc2O[C@H]1CN(C)CC1CCCCC1	22
C[C@]1(CO)CCC[C@]2(C)C3=C(C[C@@H](O)C12)C(=O)OC3 (some centres not stated)	26
Nc1c(C(=O)NCc2ccccc2)c2nc3ccccc3nc2n1CCO	35
O=C(CCSc1nc(-c2ccccc2)cs1)Nc1ccccc1	-14

Among those listed so far, five contain two or more sulfur atoms:
SMILES	NOMO-1 viab
C[C@@H]1CN([C@@H](C)CO)C(=O)Cc2cc(NS(=O)(=O)c3cccs3)ccc2O[C@@H]1CN(C)CC1CCCCC1	12
O=C1c2cccc3cccc(c23)C(=O)N1CCN1CCN(C(=S)Nc2cccc(S(=O)(=O)C(F)F)c2)CC1	-11
COc1ccc(/C=C2\SC(=S)N(CCCC(=O)O)C2=O)cc1OC	17
Cc1noc(C)c1S(=O)(=O)N(C)C[C@H]1OCCCC[C@@H](C)Oc2ccc(NS(=O)(=O)c3ccc(Cl)cc3)cc2C(=O)N([C@H](C)CO)C[C@@H]1C	32
O=C(CCSc1nc(-c2ccccc2)cs1)Nc1ccccc1	-14

Following part:
SMILES	NOMO-1 viab
C[C@@H]1CN([C@H](C)CO)C(=O)Cc2cc(NC(=O)c3ccncc3)ccc2O[C@H]1CN(C)Cc1ccc(-c2ccccc2)cc1	111*
Cc1nc2nc[nH]n2c(=O)c1NS(=O)(=O)c1ccc(C2CCCCC2)cc1	-7
C[C@H]1CN([C@@H](C)CO)C(=O)c2cc(NC(=O)CCN3CCOCC3)ccc2O[C@H]1CN(C)Cc1ccncc1	17
CCOc1ccc2nc(SCC(=O)O)nc(C)c2c1	-1
C[C@@H]1CN([C@@H](C)CO)C(=O)c2cc(NC(=O)CCN3CCOCC3)ccc2O[C@H]1CN(C)S(=O)(=O)c1ccc(F)cc1	-16
C[C@@H]1CCCCO[C@@H](CN(C)CC2CCCCC2)[C@@H](C)CN([C@H](C)CO)C(=O)c2cc(NC(=O)Nc3ccc(F)cc3)ccc2O1	115*
NS(=O)(=O)c1ccc(N=Cc2c(O)[nH]c3ccccc23)cc1	26
O=C(CC(O)(CC(=O)OCc1ccc(O[C@@H]2O[C@H](CO)[C@@H](O)[C@H](O)[C@H]2O)cc1)C(=O)OCc1ccc(O[C@@H]2O[C@H](CO)[C@@H](O)[C@H](O)[C@H]2O)cc1)OCc1ccc(O[C@@H]2O[C@H](CO)[C@@H](O)[C@H](O)[C@H]2O)cc1	10
COc1ccc(S(=O)(=O)N(C)C[C@@H]2Oc3c(NC(=O)c4ccc(-c5nccs5)cc4)cccc3C(=O)N([C@H](C)CO)C[C@H]2C)cc1	3
Cc1cc(C(=O)Nc2cccc3c2O[C@@H](CN(C)C(=O)Nc2ccc4c(c2)OCO4)[C@@H](C)CN([C@@H](C)CO)C3=O)n(C)n1	-7
Cc1ccc(S(=O)(=O)/N=S(\C)c2ccccc2)cc1 (configuration not stated)	10
C[C@@H]1CCCCO[C@H](CN(C)S(C)(=O)=O)[C@@H](C)CN([C@H](C)CO)C(=O)c2cc(NC(=O)Nc3ccccc3)ccc2O1	5
C[C@H](CO)N1C[C@H](C)[C@H](CN(C)S(=O)(=O)c2ccccc2)Oc2c(NC(=O)Nc3cccc4ccccc34)cccc2C1=O	4
COc1ccc(OC)c(NC(=O)COc2ccc3c(=O)c(-c4ccccc4OC)c(C(F)(F)F)oc3c2)c1	31
COC(=O)C(C)Sc1ncnc2scc(-c3ccc(Cl)cc3)c12 (configuration not stated)	-15
CC(=O)Nc1ccccc1-c1nc2ccccc2nc1OCC(=O)c1ccc2ccccc2c1	23
OC(CNC1CCCC1)Cn1c2ccc(Cl)cc2c2cc(Cl)ccc21 (configuration not stated)	119*
C[C@H]1CN([C@@H](C)CO)C(=O)c2cc(NS(C)(=O)=O)ccc2O[C@@H]1CN(C)Cc1ccc2c(c1)OCO2	0
CCCCC1CCC(C(=O)Oc2ccc(OCC)cc2)CC1 (configuration not stated)	3
C[C@H](CO)N1C[C@H](C)[C@H](CN(C)Cc2ccc(-c3ccccc3)cc2)Oc2ccc(NC(=O)c3ccncc3)cc2C1=O	18
Cc1ccc(S(=O)(=O)N(C)C[C@@H]2Oc3ccc(NC(=O)Nc4c(C)noc4C)cc3C(=O)N([C@@H](C)CO)C[C@H]2C)cc1	27
COc1ccc(Cl)cc1NC(=O)CN(c1ccc(Br)c(C)c1)S(C)(=O)=O	-14
Cc1ccc(S(=O)(=O)N2CCC(=O)c3ccccc32)cc1	110*
CC(C)NC(=O)Nc1ccc2c(c1)C(=O)N([C@@H](C)CO)C[C@@H](C)[C@H](CN(C)C(=O)Nc1ccc(C(F)(F)F)cc1)O2	19
CN(C)S(=O)(=O)N1CCN(CC(=O)Nc2cc(Cl)ccc2Cl)CC1	8
COc1ccc(S(=O)(=O)N(C)C[C@H]2Oc3ccc(NS(C)(=O)=O)cc3C(=O)N([C@@H](C)CO)C[C@@H]2C)cc1	-2
CCOC(=O)c1cnn(-c2nc(SC)nc3sc4c(c23)CCC4)c1N	-15
C[C@@H]1CCCCO[C@H](CN(C)C(=O)c2ccncc2)[C@@H](C)CN([C@H](C)CO)C(=O)c2cc(NC(=O)NC3CCCCC3)ccc2O1	12
Cc1ccc(S(=O)(=O)N(C)C[C@H]2Oc3ccc(NS(=O)(=O)c4cccs4)cc3C(=O)N([C@H](C)CO)C[C@H]2C)cc1	-3
C[C@H](CO)N1C[C@H](C)[C@H](CN(C)C)Oc2ccc(NS(C)(=O)=O)cc2CC1=O	-14
C[C@@H]1CN([C@H](C)CO)C(=O)c2cc(NC(=O)Cn3cnnn3)ccc2O[C@@H]1CN(C)S(=O)(=O)c1ccc(Cl)cc1	3
COc1cccc(C(=O)OCC(=O)c2ccccc2)c1OC	-20
Cc1noc(C)c1NC(=O)Nc1cccc2c1O[C@H](CN(C)S(C)(=O)=O)[C@@H](C)CN([C@@H](C)CO)C2=O	-23
Cc1ccc(S(=O)(=O)N(C)C[C@@H]2Oc3ccc(NS(=O)(=O)c4ccccc4)cc3CC(=O)N([C@@H](C)CO)C[C@@H]2C)cc1	37
C[C@H]1CN([C@@H](C)CO)C(=O)Cc2cc(NS(=O)(=O)c3ccccc3)ccc2O[C@H]1CN(C)S(=O)(=O)c1ccc(F)cc1	13
COc1cc(OC)c(NC(=O)Cc2ccccc2[N+](=O)[O-])cc1Cl	-14
COc1ccc(S(=O)(=O)NCCCN2CCOCC2)c(C)c1C	2
COc1cccc(-c2cc(C#N)c(NC(=O)c3cccc([N+](=O)[O-])c3)o2)c1	-2
C[C@@H]1CN([C@@H](C)CO)C(=O)Cc2cc(NC(=O)NC3CCCCC3)ccc2O[C@@H]1CN(C)Cc1ccc2c(c1)OCO2	39
COc1cccc(NC(=O)Cn2cnc3ccccc3c2=O)c1	-5
COc1cccc2oc(-c3ccccc3)cc(=O)c12	10
C[C@@H]1CN([C@H](C)CO)C(=O)c2cccc(NC(=O)C3CC3)c2O[C@H]1CN(C)Cc1ccc(C(F)(F)F)cc1	64
C[C@@H]1CN([C@@H](C)CO)C(=O)c2cccc(NC(=O)Nc3cccc4ccccc34)c2O[C@@H]1CN(C)CC1CC1	22
CC(C)NC(=O)N(C)C[C@H]1Oc2ccc(NC(=O)Cc3cn(C)c4ccccc34)cc2C(=O)N([C@@H](C)CO)C[C@H]1C	12
COc1ccc(Cl)cc1NC(=O)CN(Cc1ccccc1)S(C)(=O)=O	-8
C[C@@H]1CN([C@@H](C)CO)C(=O)c2cccc(NS(=O)(=O)c3ccccc3)c2O[C@H]1CN(C)CC1CCCCC1	-2
C[C@@H]1CN([C@@H](C)CO)C(=O)c2cccc(NS(=O)(=O)c3ccc(F)cc3)c2O[C@H]1CN(C)S(=O)(=O)c1cccs1	15
CNC[C@@H]1Oc2ccc(NC(=O)Nc3ccc4c(c3)OCO4)cc2C(=O)N([C@@H](C)CO)C[C@@H]1C	-4
Cc1cc(C)n(CC(O)Cn2ccc3ccccc32)n1 (configuration not stated)	-15
C[C@@H]1CN([C@@H](C)CO)C(=O)c2cc(NS(=O)(=O)c3ccc(Cl)cc3)ccc2O[C@H]1CN(C)C(=O)Nc1ccc2c(c1)OCO2	-8
Cc1ccc(S(=O)(=O)NCC(=O)Nc2ccccc2F)cc1	-2
